PrP UTR inh = suppresses PrP 5' UTR mRNA reporter expression. cell-based PrP 5' UTR mRNA reporter, plate reader. hit rate 0.35% among 340,000. AID 488862. inhibition, % (no concentration beside the values);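 active = every replicate at 50% or more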;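 note: 0 = median of the neutral control wells; tested in H4 reporter cells; numbers are from one replicate; inactives centre near -14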
Autofluor counter = compound fluorescence in toxin protease inhibitor counterscreen; compound autofluorescence counterscreen, microsphere flow cytometry; active compounds read high; fluorescence intensity (no concentration beside the values); hit rate 3.1% among 360,000; AID 624483;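 active = at least 3 SD above the mean of all compounds, about 16000 in these data; inconclusive = too few beads counted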;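 note: 100 nL of 1 mM stock went into each well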
RN4220 kill = kills Staphylococcus aureus RN4220; hit rate 0.33% among 330,000; S. aureus RN4220 growth, OD600, 16 h; inhibition, % (concentration not given with the values); AID 1259311;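 active = z-score of -3 or lower and OD600 up to 0.18 on both plates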;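 note: plate controls were untreated cells for no effect and reference antibiotic for full effect; stock transfer was 100 nL into about 80 µL; one replicate is shown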
Mtb hypoxia rep = Mtb hypoxia fluorescent reporter inhibition; hit rate 0.1% among 300,000; fluorescence inhibition, % (concentration not given with the values); M. tuberculosis hypoxia-regulated fluorescent reporter, fluorescence;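 active = 35 to 45% if threefold the growth effect, above 45% if 1.5-fold the growth effect; inactive = the rest, general growth blockers included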;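 note: wells of about 50 µL received 100 nL stock; 0% = vehicle wells and 100% = reference inhibitor wells; whole bacteria with a GFP reporter of the hypoxia response; strong numbers were not always called active; many hits fall short of the cut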
ugtP null kill = kills S. aureus RN4220 lacking UgtP. growth inhibition, % (no concentration beside the values). S. aureus RN4220 ugtP deletion, OD600 growth, 16 h; some inactives read as strong as hits. hit rate 0.54% among 330,000;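 active = z-score under -3 and OD600 up to 0.15 on both plates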;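 note: plate controls were untreated wells for no effect and antibiotic for full effect; wells of about 80 µL received 100 nL stock; the first replicate is given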
BJeLR viability = BJeLR cell viability loss; hit rate 0.17% among 300,000; AID 1554; inhibition, % (test concentration not listed); BJeLR (HRASV12) viability, CellTiter-Glo ATP luminescence, 48 h; reference of the scale not given here;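 active = replicate mean above 50%; inconclusive = above 50% but judged a plate artefact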;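 note: 50 nL library stock added to about 25 µL; numbers are from one replicate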
Mtb hypoxia rep growth = also measured in Mtb hypoxia rep; calls as there; growth inhibition, %; measured here: M. tuberculosis growth (absorbance);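 0% = vehicle and 100% = reference antibiotic; read after six days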
* hit, by the source's call; ? = inconclusive; / = no result given. This is a random part of the collection. Share with any hit: about 4%.

SMILES	PrP UTR inh	Autofluor counter	RN4220 kill	Mtb hypoxia rep	Mtb hypoxia rep growth	ugtP null kill	BJeLR viability
CCCc1cc(=O)oc2c(C)c(OC(C)C(=O)NCCN3CCOCC3)ccc12 (stereo not drawn)	-1	6264	4.2	2	8	5	7
O=C1COc2ccc3ccccc3c2CN1	-13	3289	2.6	3	6	6	-5
O=C1NC(c2ccccc2)=N/C1=C/c1ccco1	-71	1944	/	/	/	/	-3
C=CCc1cccc(CNc2nc3ccccc3n2CCC)c1O	5	6170	-4.0	-7	2	-39	-4
Cc1cc(OC(=O)c2ccccc2Br)cc(=O)n1C	-19	4745	-2.3	/	/	5	0
Cc1nnc(SCc2cc(=O)[nH]c(N3CCN(C)CC3)n2)s1	-19	2164	-5.0	-3	-4	2	-15
COc1ccc(CC(=O)Nc2nc3n(n2)C(c2ccccc2)CC(=O)N3)cc1OC (stereo not drawn)	-11	3151	/	/	/	/	4
COc1cc(NC(=O)CCc2nnc3ccc(N4CCN(c5cccc(OC)c5)CC4)nn23)cc(OC)c1	-20	5250	2.0	-3	5	-5	-7
CCCn1c(=O)c2c(nc3n2CCN3Cc2ccco2)n(C)c1=O	-19	3184	21	-5	-2	8	-11
Cc1ccc(N(CCC#N)C(=O)CSc2nnc3ccccn23)cc1	-5	4249	1.5	8	2	3	/
CCOC(=O)c1c(C)[nH]c(C(=O)OC(C)C(=O)NC2CCCCC2C)c1C (stereo not drawn)	-6	4174	5.0	17	7	-6	/
COc1ccc(CCNC(=O)CSc2nc(C)cs2)cc1	-16	2207	4.5	2	4	2	13
COc1ccc2c(c1)OCC1C2N2C(=O)c3ccc(C)cc3NC(=O)[C@@]2(C)C1c1ccccc1 (stereo partly drawn)	/	/	-5.1	-7	6	8	/
CCOc1ccc(-c2nnc(SCC(=O)N(CC)CC)n2N)cc1	-23	21180*	6.0	12	7	0	-3
NS(=O)(=O)c1ccc(NN=Cc2ccncc2)cc1	/	/	2.3	9	7	10	/
O=C(Nc1cccc(S(=O)(=O)N2CCCC2)c1)c1cc(-c2ccccn2)nc2ccccc12	-11	4706	3.0	5	2	3	-6
O=C(O)c1oc2ccccc2c1CSCc1ccccc1	-19	4354	-9.5	10	14	8	-14
Cc1noc(C)c1S(=O)(=O)N1CCC(C(=O)N2CCN(c3ccc(Cl)cc3)CC2)CC1	-17	3540	7.7	/	/	7	-1
COc1cc(C(=O)NC(=S)Nc2ccccc2[N+](=O)[O-])cc(OC)c1OC	-15	2465	2.7	2	-1	18	-9
Cc1ccnc(N/C=C(/NC(=O)c2ccccc2)C(=O)NN=Cc2ccc(F)cc2)n1	/	/	12	2	10	0	/
c1coc(C2=NC(c3ccco3)C(c3ccco3)N2)c1 (stereo not drawn)	-9	3962	1.7	2	12	0	/
Cc1nc(SCC(=O)Nc2ccc(C)c(F)c2)c2oc3ccccc3c2n1	5	2748	2.0	/	/	-12	-2
Cc1cc(OCC(=O)Nc2ccncc2)ccc1Br	-2	3260	3.1	15	10	-15	-8
Fc1ccc(N2CCN(C(c3cccs3)c3nnnn3C3CCCC3)CC2)cc1 (stereo not drawn)	-27	12662	9.0	2	2	51	9
Cc1cccc(C(=O)O/N=C(\N)Cc2cccc3ccccc23)c1	-24	6423	2.9	4	8	2	5
O=C(Nc1nnc(-c2cccnc2)o1)c1ccccc1Cl	-5	4243	13	3	6	6	1
CCOC(=O)NN=CC=Cc1ccco1	/	/	5.8	5	6	-3	/
CC1(C)CC2CC(C)(CN2C(=O)c2ccccc2)C1 (stereo not drawn)	-21	3770	13	-2	-8	8	-9
O=C(O)CCC(NC(=O)OCc1ccccc1)C(=O)O (stereo not drawn)	-17	3245	0.1	7	8	1	3
Cc1ccc(NC(=O)CSC(C)C(=O)OCC(=O)N2CCN(C(=O)c3ccco3)CC2)cc1 (stereo not drawn)	-14	5342	1.8	-1	3	2	1
Cc1ccn2cc(C(=O)N3CCCC(Nc4ccc(F)cc4)C3)nc2c1 (stereo not drawn)	-22	5455	1.9	4	5	2	-11
O=C(CCc1nc2ccccc2[nH]c1=O)OCC(=O)N1CCc2ccccc21	1	8619	2.1	3	7	-3	-5
CC1C(c2ccccc2)OC(=O)N1C (stereo not drawn)	-20	2923	0.7	25	9	5	/
CCCS(=O)(=O)N1CCCC(C(=O)NCCCN(C)Cc2ccccc2)C1 (stereo not drawn)	-17	2954	-15	3	-3	-5	5
O=C(O)c1ccc2c(c1)CCC2	-19	4311	4.3	6	-2	6	-2
O=C(COc1ccccc1Cl)Nc1ccccc1C(=O)N1CCCCC1	-32	5708	3.9	6	-1	3	-13
C=CCn1c(=N)c(S(=O)(=O)c2ccc(C)c(C)c2)cc2c(=O)n3ccccc3nc21	2	5659	0.4	0	1	4	-3
COc1ccc(OCc2ccc(-c3nc4ccccc4c(=O)n3N)o2)cc1	-67	2454	-6.7	12	8	-3	-1
COc1ccc(-c2cc(C(F)(F)F)nc(SCCC(=O)N3CCOCC3)n2)cc1	-9	2478	-2.0	10	9	20	-2
O=C(Nc1ccc(F)cc1)Nc1ccccc1C(=O)NCCN1CCNC1=O	/	/	-6.1	-2	11	3	-3

Among those listed so far, these contain fluorine:
SMILES	PrP UTR inh	Autofluor counter	RN4220 kill	Mtb hypoxia rep	Mtb hypoxia rep growth	ugtP null kill	BJeLR viability
Cc1ccnc(N/C=C(/NC(=O)c2ccccc2)C(=O)NN=Cc2ccc(F)cc2)n1	/	/	12	2	10	0	/
Cc1nc(SCC(=O)Nc2ccc(C)c(F)c2)c2oc3ccccc3c2n1	5	2748	2.0	/	/	-12	-2
Fc1ccc(N2CCN(C(c3cccs3)c3nnnn3C3CCCC3)CC2)cc1 (stereo not drawn)	-27	12662	9.0	2	2	51	9
Cc1ccn2cc(C(=O)N3CCCC(Nc4ccc(F)cc4)C3)nc2c1 (stereo not drawn)	-22	5455	1.9	4	5	2	-11
COc1ccc(-c2cc(C(F)(F)F)nc(SCCC(=O)N3CCOCC3)n2)cc1	-9	2478	-2.0	10	9	20	-2
O=C(Nc1ccc(F)cc1)Nc1ccccc1C(=O)NCCN1CCNC1=O	/	/	-6.1	-2	11	3	-3

(continued)
SMILES	PrP UTR inh	Autofluor counter	RN4220 kill	Mtb hypoxia rep	Mtb hypoxia rep growth	ugtP null kill	BJeLR viability
COc1ccc(C(=O)N(NC(=O)Oc2ccccc2)C(C)(C)C)cc1	-5	1895	2.6	15	4	4	0
O=C(Cn1nc(Cc2cccnc2)c2ccccc2c1=O)NCc1ccc(F)cc1	-23	4576	-7.3	8	12	3	5
C#Cc1ccc(C2C=C(C(=O)N3CCOCC3)OC(OCCCCO)C2)cc1 (stereo not drawn)	/	/	4.8	18	11	3	/
COc1ccccc1C1=NOC(COC(=O)c2ccc([N+](=O)[O-])cc2)C1 (stereo not drawn)	/	5458	1.4	1	9	-10	-1
Cc1ccnc(N2CCC(C(=O)Nc3nnc(C)s3)CC2)n1	-11	?	1.2	2	13	3	3
O=C(O)C(Oc1ccc2c(c1)oc(=O)c1ccccc12)c1ccccc1 (stereo not drawn)	0	4323	12	-5	7	21	-4
O=C(c1c[nH]c(C(=O)C(Cl)(Cl)Cl)c1)c1ccccc1Cl	-28	3356	-12	4	7	-13	3
CC(C)OC(=O)CSc1nnc(-c2cnccn2)n1-c1ccc(Cl)cc1	-26	21757*	5.2	8	10	-3	4
CCN(c1ccccc1)S(=O)(=O)c1ccc(Oc2ccccc2C(C)=O)nc1	-23	3314	6.3	7	7	-1	/
CC1=C(OC(=O)c2ccccc2)C(C)(C)C(c2ccc(Br)cc2)OC1=O (stereo not drawn)	-23	2584	-0.5	/	/	12	8
Cc1cccnc1Oc1ncccc1N	/	3264	3.4	1	3	4	-11
CCOC(=O)CN1C(=O)C(C)(C)Oc2ccc(C(=O)NC(C)(C)CC)cc21	-16	?	3.8	2	-3	5	-6
O=C(NCC(=O)N(CCN1CCOCC1)C(C(=O)NC1CCCC1)c1ccccc1)c1cccs1 (stereo not drawn)	-27	4539	-1.1	-13	-2	-2	9
CCN(CC(=O)Nc1ccc(C#N)c(Cl)c1)CC(=O)NC(C)(C)C	11	4262	-1.3	16	7	3	-6
CCOc1ccc(Nc2ncnc3ccc([N+](=O)[O-])cc23)cc1	25	4632	0.0	7	11	0	-8
O=C(Nc1ccc(NS(=O)(=O)c2ccc([N+](=O)[O-])cc2)cc1)c1ccco1	-12	4794	13	3	13	7	1
Cc1cc(C(=O)N(C)Cc2c(F)cccc2Cl)c2ccccc2n1	13	4067	2.5	0	4	2	3
CNC(=O)c1c(NC(=O)c2ccc3ncsc3c2)sc(C)c1C	-13	5702	8.2	-6	6	-1	2
CC1CCCN(C(=O)c2ccc3c(=O)n(C4CCCC4)c(=S)[nH]c3c2)C1 (stereo not drawn)	-6	4153	-32	6	11	-7	7
COc1cccc(CN2CCNC(=O)C2CC(=O)NCc2cn3cccc(C)c3n2)c1OC (stereo not drawn)	-22	4387	0.6	-2	-7	1	-2

Whole records, quoted from the list. Values in the order: PrP UTR inh	Autofluor counter	RN4220 kill	Mtb hypoxia rep	Mtb hypoxia rep growth	ugtP null kill	BJeLR viability
`O=C(O)CCC(NC(=O)OCc1ccccc1)C(=O)O` (stereo not drawn) across the screens: -17	3245	0.1	7	8	1	3
`c1coc(C2=NC(c3ccco3)C(c3ccco3)N2)c1` (stereo not drawn) across the screens: -9	3962	1.7	2	12	0	/

Next section:
SMILES	PrP UTR inh	Autofluor counter	RN4220 kill	Mtb hypoxia rep	Mtb hypoxia rep growth	ugtP null kill	BJeLR viability
O=C(Nc1ccc(F)cc1)N1CCN(c2nc3ccccc3s2)CC1	-6	3169	2.4	11	5	8	7
CC(C)CC(=O)N1CCN(c2ccc(NC(=O)c3ccco3)cc2)CC1	0	6051	-1.4	-5	10	0	7
O=C(NC12CC3CC(CC(C3)C1)C2)N1CCN(c2ccccc2)CC1	-6	4263	0.7	-1	18	-1	4
COC(=O)c1ccc(NC(=O)COc2ccc3c(c2)OCO3)cc1	-7	3618	0.9	1	-2	1	7
C=CCn1c(SCC(=O)N(C)C2CCS(=O)(=O)C2)nnc1-c1ccccc1 (stereo not drawn)	-15	?	0.2	2	-5	12	5
O=C(NCc1cccnc1)/C(=N\O)c1ccccc1	-11	3165	/	/	/	/	-7
O=C(CSc1nncs1)Nc1ccc(Cl)cn1	-12	2106	2.8	6	7	14	1
CSC(=NCc1ccc(F)cc1)NS(=O)(=O)c1cccs1	-16	2408	7.1	5	4	-5	0
CC1(C)CC(=O)CC2(C1)NCC(c1ccccc1)c1c2[nH]c2ccccc12 (stereo not drawn)	-23	3256	-3.2	5	9	10	-1
NC(=O)CC(NC(=O)Cc1ccc(Br)cc1)c1ccc(N2CCC(N3CCCCC3)CC2)c([N+](=O)[O-])c1 (stereo not drawn)	-6	3454	4.6	5	5	-5	2
CCOc1cc(C2C(C(=O)OC(C)C)=C(C)N=C3SCCC(=O)N32)ccc1OC(C)=O (stereo not drawn)	-5	4677	1.6	/	/	7	1
Cc1ccc(OCC(=O)N/N=C\c2ccc(-c3cccc(C(=O)O)c3)o2)c(C)c1	-26	2101	/	/	/	/	0
Cc1ccc(-n2c(SCC(=O)NCCN3C(=O)CSC3=O)nnc2-c2ccccc2)cc1	-2	1956	0.6	9	-5	0	6
O=C(NCc1cccnc1)c1ccc(S(=O)(=O)Nc2ccccc2)cc1	-5	4790	-0.5	-7	-3	1	0
CCC(C)c1ccc(OCC(=O)O)cc1 (stereo not drawn)	-41	8605	2.9	14	12	0	-8
COc1ccccc1C1CN(c2ccc(F)cc2F)N=C1c1cccs1 (stereo not drawn)	-13	5865	-11	2	-2	76	8
CC1CCCN(Cc2nc3c(c(=O)n(C)c(=O)n3C)n2CC(=O)c2ccccc2)C1 (stereo not drawn)	-10	5615	3.8	1	-3	3	-4
Cc1cccc(Nc2nc(N)c([N+](=O)[O-])c(NCc3ccccc3)n2)c1	-4	/	-5.9	-14	-2	22	4
O=C(NNC(=O)c1ccccc1Br)c1ccc2nc[nH]c2c1	-23	4290	4.3	-1	-6	5	-3
CCOC(=O)N1CCC(NS(=O)(=O)c2cc(Br)cc3c2N(C(=O)CC)CC3)CC1	-8	3887	1.5	1	4	0	-13
Cc1cc(=O)[nH]c(N/N=C/c2ccc(Cl)cc2Cl)n1	-10	3937	/	/	/	/	-10
CS(=O)(=O)N(CC(=O)NC1CCCC1)c1ccc2c(c1)OCCO2	-28	8926	3.4	5	1	7	9
C=CCn1c(SCc2ccc(C#N)cc2)nnc1-c1cccc(Cl)c1	-16	2763	1.9	/	/	-2	12

Screening results from PubChem BioAssay.
